Compound activity (PubChem BioAssay)
Kir21 inh: inhibitors of mouse Kir2.1 inward-rectifier potassium channel; P35561; HEK293-Kir2.1, FluxOR thallium flux fluorescence; active compounds read low; B-score at 10 µM; actives 0.85% (n = 310,000); AID 1672;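 active = fluorescence ratio B-score at or below minus 3 SD of library scores, with starting-brightness B-score within 2 SD, cut at about -4.2 in these data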;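 also: channel flux triggered by added potassium and thallium sulfate stimulus; B-score of peak minus minimum fluorescence over baseline after thallium stimulus; more negative B-score means stronger Kir2.1 block with less thallium influx; some compounds called inactive have numbers as strong as hits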
Target sequence (P35561 whole entry, looked up): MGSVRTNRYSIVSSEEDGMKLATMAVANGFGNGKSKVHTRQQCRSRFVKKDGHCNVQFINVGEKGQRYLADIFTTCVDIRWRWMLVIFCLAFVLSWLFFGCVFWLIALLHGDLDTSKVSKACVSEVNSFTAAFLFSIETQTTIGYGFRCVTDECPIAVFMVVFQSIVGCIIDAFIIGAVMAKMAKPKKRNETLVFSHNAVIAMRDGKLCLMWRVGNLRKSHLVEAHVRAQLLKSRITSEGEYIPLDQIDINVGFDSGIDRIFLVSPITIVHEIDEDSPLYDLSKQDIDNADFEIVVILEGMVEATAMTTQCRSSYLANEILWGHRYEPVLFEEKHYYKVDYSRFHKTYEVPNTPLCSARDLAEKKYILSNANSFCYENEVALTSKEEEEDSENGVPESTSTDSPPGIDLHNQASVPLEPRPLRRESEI
CHT inh: inhibits the human high affinity choline transporter; Q9GZV3; CHT-expressing cells, membrane potential dye, choline response; active compounds read low; B-score at 10 µM; actives 0.86% (n = 310,000);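 active = B-score over 3 SD under the library average, and starting fluorescence ratio not unusually high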;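 also: choline stimulus applied at its EC90 after an EC20 pre-addition; B-score computed on integrated fluorescence ratio after choline addition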
Target sequence (Q9GZV3 whole entry, looked up): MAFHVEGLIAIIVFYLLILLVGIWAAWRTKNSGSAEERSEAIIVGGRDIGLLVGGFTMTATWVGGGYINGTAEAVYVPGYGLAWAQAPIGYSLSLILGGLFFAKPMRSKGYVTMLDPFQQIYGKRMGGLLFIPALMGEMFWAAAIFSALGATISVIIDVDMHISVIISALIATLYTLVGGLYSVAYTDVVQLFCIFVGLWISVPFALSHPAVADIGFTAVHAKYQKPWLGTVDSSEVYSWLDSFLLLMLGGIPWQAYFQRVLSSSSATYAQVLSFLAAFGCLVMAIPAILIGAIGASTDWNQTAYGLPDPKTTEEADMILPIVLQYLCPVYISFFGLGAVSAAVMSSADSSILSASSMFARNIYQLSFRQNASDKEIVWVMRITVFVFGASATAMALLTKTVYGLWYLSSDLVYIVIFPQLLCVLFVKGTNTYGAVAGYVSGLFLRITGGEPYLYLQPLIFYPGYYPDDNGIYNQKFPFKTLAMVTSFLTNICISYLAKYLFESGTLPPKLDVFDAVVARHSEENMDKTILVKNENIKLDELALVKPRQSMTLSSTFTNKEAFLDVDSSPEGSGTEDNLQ
Active calls of the source: *; i = inactive; . = not tested or not shown.

SMILES	Kir21 inh	CHT inh
Cc1c(NC(=O)c2cc3ccccc3oc2=O)c(=O)n(-c2ccccc2)n1C	0.12	i
O=C1CC(C(=O)Nc2ccc(C(=O)O)cc2)C(c2ccccc2)O1 (centres undefined)	-0.6	i
CN(C)CCNC(=O)Cc1ccc([N+](=O)[O-])cc1	-0.24	i
CCOc1ccc(S(=O)(=O)NCCCN2CCOCC2)c2ccccc12	-2.4	i
CNC(=S)N1N=C(c2ccc(Br)cc2)CC1c1ccc(OC)cc1 (centres undefined)	1.5	i
CC(C)n1nc(C(=O)Nc2nc3ccccc3[nH]2)c2ccccc2c1=O	-0.01	i
N#C/C(=C\c1ccc(Cl)cc1)C(=O)NC1CC1	-1.7	i
CCOc1ccc(NCC(=O)c2ccc(C)cc2)cc1	-1.1	i
Cn1c(=O)c2cc(S(=O)(=O)N3CCC(c4ccccc4)CC3)ccc2n(C)c1=O	2	i
Cc1nc2ccc(S(=O)(=O)NC(C(=O)NCc3cccs3)C(C)C)cc2s1 (centres undefined)	-0.95	i
O=C1Nc2ccc([N+](=O)[O-])cc2OC1CCN1CCN(Cc2ccc3c(c2)OCO3)CC1 (centres undefined)	0.41	i
COc1ccc(N2C(=O)CC2(/C=C/c2ccccc2OC)C(=O)NC2CCCC2)cc1 (centres undefined)	1.5	i
Cc1cc2c(cc1S(=O)(=O)NCCc1ccc(Cl)cc1)OCC(=O)N2	0.56	i
COc1ccc(-c2nc(CS(=O)CC(=O)NCc3ccco3)c(C)o2)cc1 (centres undefined)	0.31	i
O=C(c1cc2nc(-c3cccs3)cc(C(F)(F)F)n2n1)N1CCCc2ccccc21	-0.14	i
CCOC(=O)c1ccn(-c2nc(-c3ccco3)cc(C(F)(F)F)n2)n1	1.8	i
O=C(NCc1ccco1)c1cc2ccccc2c(=O)o1	0.65	i
O=C(Oc1ccc(-n2cnnn2)cc1)c1ccccc1	-3	i
CCOC(=O)c1csc(-c2ccc3c(c2)CCO3)n1	1.1	i
CC(=O)Nc1ccc(S(=O)(=O)N2CCN=C2c2ccccc2)cc1	-0.7	i
O=C(Nc1ccncc1)c1ccccc1[N+](=O)[O-]	0.52	i
COCCCNC(=O)c1cc(C(=O)c2ccccc2Br)c[nH]1	0.41	i
Cc1ccc(C(=O)NCc2ccco2)cc1[N+](=O)[O-]	-0.42	i
O=C1C2CC=C(Cl)CC2C(=O)N1CCN1CCOCC1 (centres undefined)	-0.48	i
COCCNC(=O)CCC1CCN(C/C=C/c2ccccc2OC)CC1	0.47	i
S=C(Nc1ccc2[nH]ccc2c1)NC1CCCCC1	-3.5e-16	i
CCn1nc(NS(=O)(=O)c2ccccc2)c2cc3cccc(C)c3nc21	2.6	i
NC(=O)c1ccccc1NC(=O)Nc1cccc(Cl)c1Cl	0	i
Cn1c2ccccc2c2nn(-c3ccccc3)c(=O)cc21	0.44	i
O=S(=O)(c1cccc(F)c1)N1CCCN(c2ccc(C(F)(F)F)cn2)CC1	-1.6	i

Continued; it opens with the 4 that closed the last part.
SMILES	Kir21 inh	CHT inh
CCn1nc(NS(=O)(=O)c2ccccc2)c2cc3cccc(C)c3nc21	2.6	i
NC(=O)c1ccccc1NC(=O)Nc1cccc(Cl)c1Cl	0	i
Cn1c2ccccc2c2nn(-c3ccccc3)c(=O)cc21	0.44	i
O=S(=O)(c1cccc(F)c1)N1CCCN(c2ccc(C(F)(F)F)cn2)CC1	-1.6	i
COc1cccc(NC(=O)CSCc2cc(=O)n3ccsc3n2)c1	-1.1	i
CCCCCNC(=O)[C@@H]1CSC2c3ccccc3C(=O)N21 (some centres undefined)	1.1	i
CCn1c(CO)nc2c1c(=O)[nH]c(=O)n2Cc1ccccc1	-0.34	i
COc1ccccc1C(=O)Nc1cc2cc(Cl)ccc2oc1=O	-2.1	i
C=CCn1cc(/C=N\NC(=O)c2cc3c(ccc4ccccc43)o2)c2ccccc21	-0.66	i
Cc1ccc(S(=O)(=O)NC(=O)Nc2ccccc2)cc1	0.02	i
COc1ccc(N(C)S(=O)(=O)c2cccc(C(=O)Nc3ccc(-n4cnnn4)cc3)c2)cc1	-0.4	i
CCc1ccc(NC(=O)COn2nnc3ccc(S(=O)(=O)N(C)C)cc32)cc1	-0.38	i
Cc1cccc(N(C(=O)c2csnn2)C(C(=O)NC2CCCCC2)c2ccccn2)c1C (centres undefined)	0.44	i
Cc1c(C(=O)NC(C)C)oc2c1-c1[nH]ncc1CC2	1.6	i
CCOc1ccc(CCNC(=O)COC(=O)Cn2nc(C)c([N+](=O)[O-])c2C)cc1OCC	0.01	i
Cc1ccc(C(=O)OCC(=O)Nc2ccccc2Sc2ccccc2)cc1C	0.66	i
COC(=O)C1=CN(C(C)C)C=C(C(=O)OC)C1c1cc2c(cc1Br)OCO2	-0.09	i
CC(C)C[C@@H](NC(=O)C1CCC(CNC(=O)[C@@H]2CCCN2C(=O)OC(C)(C)C)CC1)C(=O)O (some centres undefined)	-0.13	i
O=C(NC(=S)NC1CCCc2ccccc21)c1ccc(F)cc1 (centres undefined)	-0.62	i
Cc1cc(C)n(Cc2ccc(C(=O)N/N=C/c3ccc(-c4ccc([N+](=O)[O-])cc4)o3)o2)n1	2.2	i
CC(=O)NC(=S)NNC(=O)C(c1ccccc1)c1ccccc1	0.28	i
CCOC(=O)c1oc2ccccc2c1NC(=O)c1cccc(OC)c1	-1.1	i
Cc1cc(C)n2nc(C(=O)OCC(=O)Nc3ccc4c(c3)OC(F)(F)O4)nc2n1	0.68	i
COc1ccc2c(c1OC)C(=O)N(c1ccccc1)C2=O	0.14	i
CC(C)CN1C(=O)c2ccc(C(=O)Nc3ccccn3)cc2C1=O	-1.5	i
CCOC(=O)C1=C(c2ccc(OC)cc2)OC(N)=C(C#N)C1c1cccnc1 (centres undefined)	2	i
O=C(CCN1C(=O)/C(=C/c2ccco2)SC1=S)Nc1ccc(C(=O)O)c(O)c1	0.84	i
CCNC(=O)NC(=O)C(C)OC(=O)C1CCN(S(=O)(=O)c2ccccc2C(=O)OC)CC1 (centres undefined)	0.09	i
CN(C(=O)COc1ccc(S(=O)(=O)N2CCOCC2)cc1[N+](=O)[O-])C1CCS(=O)(=O)C1 (centres undefined)	0.03	i
Cc1ccc(CN(Cc2ccco2)S(=O)(=O)c2ccc(S(=O)(=O)NCC3CCCO3)cc2)cc1 (centres undefined)	0.03	i
Cc1ccc(NC(=O)C2CCN(S(=O)(=O)c3cnc[nH]3)CC2)cc1C	0.06	i
Cc1ccc(NC(=O)COc2ccc(/C(N)=N/O)cc2)cc1C	-0.99	i
CCOC(=O)CCc1c(C)nc(SCc2ccc(C(=O)O)cc2)c(C#N)c1C	-2.1	i
COc1ccc(NC(=O)CSc2nnc3ccc(-c4ccccn4)nn23)c(OC)c1	1.7	i
CC(C)NS(=O)(=O)c1ccc(OCC(=O)NC(C)c2ccccc2)cc1 (centres undefined)	0.02	i
Cc1sc2nc(SCC(=O)N3CCOCC3)[nH]c(=O)c2c1C	0.3	i
O=C(O)COc1c(Cl)cc(/C=C2/NC(=O)NC2=O)cc1Br	0.84	i
CCCc1nn2c(=O)cc(COc3cccc(NC(=O)c4ccco4)c3)nc2s1	-0.01	i
CCc1ccccc1OCCOc1ccc(C)cc1OC	-1.7	i
COc1cc(C(=O)NCCC(=O)N2CCN(C)CC2)cc(OC)c1OC	-0.07	i
COC(=O)C1CCN(C(=O)c2ccc(Cl)c(S(=O)(=O)NCc3cccnc3)c2)CC1	-0.78	i
Cc1c(NC(=O)C2CCCN2S(=O)(=O)c2ccccc2)c(=O)n(-c2ccccc2)n1C (centres undefined)	0.27	i
Cn1cc(/C=C(\C#N)C(=O)Nc2ccccc2O)c2ccccc21	1.5	i
CCN(CC)c1nc(N2CCN(CCO)CC2)nc2ccccc12	1.1	i
COc1ccc(C(=O)N/C(=C\c2cn(S(=O)(=O)N(C)C)c3ccccc23)C(=O)NCCCn2ccnc2)cc1	-1.5	i
Cn1nc(-c2ccccc2)cc1NS(=O)(=O)c1ccc(C#N)cc1	-0.27	i
CCOc1ccccc1N1CCN(C(=O)c2ccncc2)CC1	-1.3	i
CCOC(=O)C1(Cc2cccc(OC)c2)CCN(C2CCOCC2)CC1	-0.08	i
CN(C)c1ccc(/C=N/NC(=O)c2ccc(Cl)cc2)cc1	0.96	i
c1ccc(-c2ncnc3nc4n(c23)CCC4)cc1	-0.83	i
O=C(NCCO)/C(=C\c1ccc(Br)cc1)NC(=O)c1cccs1	0.47	i
O=C(Nc1ccnc(-c2cccnc2)n1)c1ccc(Cl)cc1	-0.79	i
CCN(CC)CCCN(Cc1cc2cc3c(cc2[nH]c1=O)OCO3)C(=O)Nc1ccccc1OC	2.4	i
COc1ccc(-c2cc(C(=O)N3CCN(c4ncccn4)CC3)c3ccccc3n2)c(OC)c1	0.74	i
COC(=O)CC1C(=O)NCCN1C(=O)CSc1nnc(Nc2ccc(OC)cc2)s1 (centres undefined)	0.05	i
Cc1ccc(N(CC(=O)NCCSCc2ccco2)S(=O)(=O)c2ccc(F)cc2)cc1	-1.2	i
O=C(c1ccccc1)N(Cc1ccccc1)c1ccccn1	-4	i
CCCN1CCC(NC(=S)Nc2ccc(OC)c(OC)c2)CC1	-0.84	i
CCOC(=O)N1CCC(NC(=O)C(NS(=O)(=O)c2ccc3c(c2)CCN3C(C)=O)C(C)C)CC1 (centres undefined)	0.04	i
CCOc1cc(CNc2ccc3[nH]c(=O)[nH]c3c2)ccc1OCC(=O)NC(C)(C)C	1.9	i
CCOc1cccc(-c2nnc(SCC(=O)NC3CC3)n2C)c1	1.1	i
CN(Cc1nccs1)C(=O)CC1C(=O)NCCN1Cc1ccc(-c2ccccc2)cc1 (centres undefined)	-0.95	i
COc1ccccc1CNC(=O)c1cccs1	-0.05	i
O=C(O)[C@H](Cc1c[nH]c2ccccc12)Nc1ncccc1[N+](=O)[O-]	-0.1	i

Next part, overlapping the part above by two compounds.
SMILES	Kir21 inh	CHT inh
COc1ccccc1CNC(=O)c1cccs1	-0.05	i
O=C(O)[C@H](Cc1c[nH]c2ccccc12)Nc1ncccc1[N+](=O)[O-]	-0.1	i
O=C(c1ccccc1CCc1ccccc1)N1CCCC1	-2.7	i
COc1ccc(N2C(=O)CC(Nc3cccc([N+](=O)[O-])c3)C2=O)cc1 (centres undefined)	0.01	i
CN(C)S(=O)(=O)c1ccc(C(=O)NCc2nnc(SCC(=O)NCc3ccco3)o2)cc1	-0.79	i
CN1CCN(S(=O)(=O)c2ccc(=O)[nH]c2)CC1	0.04	i
CCOC(=O)c1cnc(-n2nc(C)cc2C)nc1Nc1ccc(O)cc1	-1.7	i
NNC(=O)CCC(=O)Nc1ccccc1	-0.75	i
Cc1ccc(S(=O)(=O)N(CC(=O)N2CCCCCC2)c2ccccc2F)cc1	-1.5	i
O=C(CNC(=O)C12CC3CC(CC(C3)C1)C2)NC1=NCCS1	-0.66	i
COc1ccc2nc(SCc3cccnc3)c(C#N)cc2c1	-0.5	i
CC(NC(=O)CSCc1ccccc1Br)c1ccccc1 (centres undefined)	-3	i
CCN(CC)S(=O)(=O)c1ccc(C(=O)NCC(=O)NC2CC2)cc1	0.17	i
Cc1ccc(C(=O)OCCN(C)Cc2ccccc2)cc1	-0.91	i
O=C(NCC1CCCN1S(=O)(=O)c1cccs1)C(=O)Nc1ccccc1 (centres undefined)	-0.17	i
Cc1nc(NC(=O)c2ccccc2)sc1-c1csc(Nc2ccc(F)cc2)n1	0.94	i
O=C(CN1CCN(c2nc(-c3ccccc3)cs2)CC1)NNC(=O)c1ccc(Br)cc1	0.29	i
CCc1nc(N2CCN(C(=O)c3ccccc3)CC2)c2c3c(sc2n1)CCCC3	0.63	i
CS(=O)(=O)N1CCc2cc(S(=O)(=O)NCCNS(=O)(=O)c3ccc4c(c3)CCN4S(C)(=O)=O)ccc21	1.6	i
O=C(CCC1CCCN(C(=O)Cc2cccc(F)c2)C1)N1CCN(c2ccccn2)CC1 (centres undefined)	-1	i
COc1cccc(Nc2ccc(Nc3cccc(OC)c3)nn2)c1	-0.01	i
O=C(O)c1cc(-c2ccc(/C=N/N3C(=O)C4C5C=CC(C6CC56)C4C3=O)o2)ccc1Cl (centres undefined)	2.6	i
N#Cc1ccc(C23CC4(C2)[C@H](CN(Cc2ccc(C(F)(F)F)cc2)[C@@H]4c2ccccc2)C3c2ccc(Cl)nc2)cc1 (some centres undefined)	0.42	.
O=C(NC1CCCCCC1)C(Cc1ccccc1)n1cccc1 (centres undefined)	-0.6	i
CCCCn1c(N)c(N(CCC(C)C)C(=O)C2=NN(c3cc(C)ccc3C)C(=O)CC2)c(=O)[nH]c1=O	2.1	i
COc1ccc(C(=O)NCc2ccncc2)cc1OC	0.01	i
CCCC(=O)Nc1cccc(NC(=O)c2cccc([N+](=O)[O-])c2C)c1	-0.49	i
CN(C)c1nc(C(=O)OCCO)nc(N(C)C)n1	0.18	i
Cc1cccc(C(=O)N(Cc2ccc(C)o2)C2CCS(=O)(=O)C2)c1 (centres undefined)	0	i
CN1CCN(C(=O)/C=C\C(=O)O)CC1	-0.36	i

Single records, from the list above. Order of screens: Kir21 inh, CHT inh
Results for O=C(NC1CCCCCC1)C(Cc1ccccc1)n1cccc1 (centres undefined) = -0.6, i
Results for CN1CCN(C(=O)/C=C\C(=O)O)CC1 = -0.36, i
Results for CN(C)c1nc(C(=O)OCCO)nc(N(C)C)n1 = 0.18, i
Results for CCCC(=O)Nc1cccc(NC(=O)c2cccc([N+](=O)[O-])c2C)c1 = -0.49, i
Results for N#Cc1ccc(C23CC4(C2)[C@H](CN(Cc2ccc(C(F)(F)F)cc2)[C@@H]4c2ccccc2)C3c2ccc(Cl)nc2)cc1 (some centres undefined) = 0.42, .

These rows are one share of the data; most or all hits stand in other tables.
